Bioassay records as filed in PubChem BioAssay.
RN4220 kill: kills Staphylococcus aureus RN4220 | S. aureus RN4220 growth, OD600, 16 h | inhibition, % (no concentration beside the values) | 330,000 tested, 0.33% active | AID 1259311;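 active means z-score of -3 or lower and OD600 up to 0.18 on both plates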;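 further: plate controls were untreated cells for no effect and reference antibiotic for full effect; stock transfer was 100 nL into about 80 µL; one replicate is shown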
Bead autofluor: counter-screen for toxin protease inhibitors: compound fluorescence; compound autofluorescence counterscreen, microsphere flow cytometry; active compounds read high; fluorescence intensity (test concentration not listed); 360,000 tested, 3.1% active;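 active means at least 3 SD above the mean of all compounds, about 16000 in these data; inconclusive means too few beads counted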;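 further: 100 nL of 1 mM stock went into each well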
BJeLR lethal: BJeLR cell viability loss; BJeLR (HRASV12) viability, CellTiter-Glo ATP luminescence, 48 h; reference of the scale not given here; inhibition, % (concentration not given with the values); 300,000 tested, 0.17% active; AID 1554;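 active means replicate mean above 50%; inconclusive means above 50% but judged a plate artefact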;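 further: 50 nL library stock added to about 25 µL; numbers are from one replicate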
PrP 5UTR inh: inhibition of PrP 5' UTR reporter expression; cell-based PrP 5' UTR mRNA reporter, plate reader; inhibition, % (no concentration beside the values); 340,000 tested, 0.35% active; AID 488862;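 active means every replicate at 50% or more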;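 further: 0 = median of the neutral control wells; tested in H4 reporter cells; numbers are from one replicate; inactives centre near -14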
Sa ugtP lethal: growth inhibition of S. aureus ugtP deletion strain | S. aureus RN4220 ugtP deletion, OD600 growth, 16 h; some inactives read as strong as hits | growth inhibition, % (test concentration not listed) | 330,000 tested, 0.54% active;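 active means z-score under -3 and OD600 up to 0.15 on both plates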;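 further: plate controls were untreated wells for no effect and antibiotic for full effect; wells of about 80 µL received 100 nL stock; the first replicate is given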
Mtb hypoxia rep: reduces hypoxia-regulated biosensor signal in M. tuberculosis; M. tuberculosis hypoxia-regulated fluorescent reporter, fluorescence; fluorescence inhibition, % (no concentration beside the values); 300,000 tested, 0.1% active;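 active means 35 to 45% if threefold the growth effect, above 45% if 1.5-fold the growth effect; inactive means the rest, general growth blockers included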;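 further: wells of about 50 µL received 100 nL stock; 0% = vehicle wells and 100% = reference inhibitor wells; whole bacteria with a GFP reporter of the hypoxia response; strong numbers were not always called active; many hits fall short of the cut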
Mtb hypoxia rep growth: second read-out of Mtb hypoxia rep, no call of its own (marks repeat the call); growth inhibition, %; measured here: M. tuberculosis growth (absorbance);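 0% = vehicle and 100% = reference antibiotic; read after six days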
An asterisk follows results filed as active; ? = inconclusive; · = no result given.

no.	SMILES	RN4220 kill	Bead autofluor	BJeLR lethal	PrP 5UTR inh
1	Cc1cccc(NC(=O)c2cnc3n(c2=O)CCS3)c1	-2.9	20823*	2	-63
2	COc1cccc(NC(=O)CCC(=O)Nc2cccc(OC)c2)c1	4.0	2134	-4	-16
3	CCc1ccccc1NC(=O)c1cc(=O)c2ccccc2o1	1.9	2041	5	-24
4	COc1cc([N+](=O)[O-])ccc1N1C(=O)C2C3C=CC(C4CC34)C2C1=O (stereo not drawn)	-0.5	4827	-5	-19
5	COc1cc(C2C3C(=O)N(c4ccc(F)cc4)C(=O)C3ON2c2ccccc2)ccc1O (stereo not drawn)	4.5	4899	-13	-6
6	COC(=O)c1cc(C(=O)N2CCN(C(=O)c3ccco3)CC2)cc([N+](=O)[O-])c1	0.2	4631	-2	-8
7	COC(=O)COc1ccc(S(=O)(=O)NCC2CCCO2)cc1Cl (stereo not drawn)	0.5	10920	-12	-37
8	O=C1NC2(CCCCC2)N(C(=O)c2ccccc2)C2=C1CCCC2	0.4	4386	3	-11
9	CN(C)S(=O)(=O)c1ccc(C(=O)NCc2nc3ccccc3s2)cc1	4.6	5749	-7	-4
10	O=C(NN=Cc1ccccn1)c1[nH]c2ccc([N+](=O)[O-])cc2c1-c1ccccc1	-31	·	·	·
11	O=C(NN=Cc1ccc([N+](=O)[O-])o1)c1cn(-c2ccccc2)nc1-c1ccc(Cl)cc1	99*	·	·	·
12	c1cc2c(cc1NC1CCCCCC1)OCO2	9.8	3940	-5	-21

no.	Sa ugtP lethal	Mtb hypoxia rep	Mtb hypoxia rep growth
1	4	4	5
2	-1	12	10
3	4	13	10
4	1	-1	17
5	9	·	·
6	10	7	12
7	3	1	-8
8	-7	-9	4
9	-9	6	9
10	-7	9	2
11	99*	-11	-1
12	5	17	-2

The final two compounds of the part above open the next one.
no.	SMILES	RN4220 kill	Bead autofluor	BJeLR lethal	PrP 5UTR inh
11	O=C(NN=Cc1ccc([N+](=O)[O-])o1)c1cn(-c2ccccc2)nc1-c1ccc(Cl)cc1	99*	·	·	·
12	c1cc2c(cc1NC1CCCCCC1)OCO2	9.8	3940	-5	-21
13	CCN(CC)C(=O)C(=O)c1cccn1-c1c(Cl)cccc1C#N	-0.1	3759	-2	-2
14	COc1ccc(S(=O)(=O)N2CCC(C(=O)NCCC(=O)NC3CC3)CC2)cc1	6.9	4219	-2	-10
15	CC(C(=O)Nc1ccc2[nH]c(=O)[nH]c2c1)N1CCN(Cc2ccc3c(c2)OCO3)CC1 (stereo not drawn)	3.2	?	·	3
16	O=C(c1ccc(Cl)cc1Cl)c1ncc(C(F)(F)F)cc1Cl	1.7	11676	0	-33
17	Cc1cc(-c2nnc3n2N=C(c2ccccc2)CS3)n[nH]1	1.2	3009	1	-5
18	COC(=O)c1sccc1-n1cccc1C(=O)C(=O)N1CCCC1	-5.1	2659	7	-4
19	CC(C)Sc1nc2ccccc2[nH]1	7.9	4779	1	-6
20	COc1cc2nc(N(CCN(C)C)C(=O)c3ccc4ccccc4c3)sc2cc1OC	2.3	6109	7	-1
21	COc1ccc(-n2cc(CNCCCN3CCCC3=O)c(-c3ccccc3Cl)n2)cc1	-1.6	2820	7	-13
22	O=C(/C=C/Nc1cccc(F)c1)c1ccco1	6.6	9512	-4	-40
23	Cn1c(SCC(=O)Nc2ccc(C(=O)O)cc2)nc2scc(-c3ccccc3Cl)c2c1=O	1.6	4175	·	-13
24	COc1ccc(C(=O)C(CO)Oc2ccccc2OC)cc1OC (stereo not drawn)	3.2	12316	-9	-16

no.	Sa ugtP lethal	Mtb hypoxia rep	Mtb hypoxia rep growth
11	99*	-11	-1
12	5	17	-2
13	5	-4	-7
14	16	5	-7
15	6	5	9
16	13	6	0
17	15	-1	-3
18	-4	·	·
19	-2	14	-1
20	-6	5	14
21	0	0	11
22	-4	11	4
23	-1	13	-5
24	1	1	4

(next part)
no.	SMILES	RN4220 kill	Bead autofluor	BJeLR lethal	PrP 5UTR inh
25	CCOc1ccccc1OCCCC(=O)NC1CCCc2ccccc21 (stereo not drawn)	9.4	7263	9	-19
26	CCCS(=O)(=O)N1CCN(Cc2ccccc2C(F)(F)F)CC1	5.6	6933	9	-3
27	CCS(=O)(=O)Nc1ccc2[nH]c(=O)[nH]c2c1	·	4259	13	-16
28	CS(=O)(=O)N1CCC(Oc2cccc(C(=O)NCCCOc3cccnc3)c2)CC1	-1.1	6390	29	-17
29	Cc1ccc(NC(=O)CSc2nc(=O)n(CCCN3CCOCC3)c3c2CCCC3)c(C)c1	3.0	?	1	-3
30	NC(=O)N/N=C/c1cn(-c2ccccc2)nc1-c1cccs1	·	4480	34	-50
31	Clc1ccc(SCNc2ccccc2Cl)cc1	3.3	3921	2	-22
32	CCOc1ccccc1N1CC(C(=O)NNC(=O)c2ccc(F)cc2)CC1=O (stereo not drawn)	1.8	4505	0	-12
33	O=C(Nc1ccc2oc(-c3ccccc3)nc2c1)c1cccs1	-8.6	4251	-6	-89
34	COC(=O)C(Cc1ccc(OC(=O)c2ccc(Cl)cc2)cc1)N1Cc2ccccc2C1=O (stereo not drawn)	-5.7	3676	-2	-62
35	Nc1cc2nc3ccccc3nc2cc1N	1.1	3416	5	-20
36	O=Cc1c(F)cccc1N1CCCC1	-4.6	4785	-5	33

no.	Sa ugtP lethal	Mtb hypoxia rep	Mtb hypoxia rep growth
25	-9	2	8
26	-5	12	5
27	·	·	·
28	-4	-4	-2
29	3	6	11
30	·	·	·
31	88*	6	4
32	4	-10	-5
33	13	·	·
34	10	·	·
35	1	·	·
36	1	6	0

Next structures follow.
no.	SMILES	RN4220 kill	Bead autofluor	BJeLR lethal	PrP 5UTR inh
37	COc1ccc(S(=O)(=O)N2CCOC2CNC(=O)C(=O)NCCc2c[nH]c3ccccc23)cc1 (stereo not drawn)	13	5568	12	-10
38	CCOC(=O)N1CCN(S(=O)(=O)Cc2ccccc2)CC1	0.4	4152	2	-10
39	COc1ccc(-c2nnc(SCC(=O)Nc3nncs3)o2)cc1	-1.3	4004	-5	-20
40	Nc1nc2ccccc2n1N=Cc1ccc(-c2ccccc2)o1	7.0	·	·	·
41	Cc1ccc(CCN2CC(C(=O)NCc3ccc4c(c3)OCO4)CC2=O)cc1 (stereo not drawn)	-0.4	5911	0	-4
42	CCOc1cc(/C=N/NC(=O)CN2CCOCC2)ccc1OCc1ccc(Cl)cc1	·	3372	4	10
43	C=CCn1c(C)c(C(=O)OCC)c2cc(O)c3ccccc3c21	1.8	3946	-4	-20
44	CC1CCN(S(=O)(=O)c2cccc(C(=O)Nc3nncs3)c2)CC1	4.8	5669	10	-15
45	COc1ccc2c(c1OC)C(=O)OC2CC(=O)c1ccc(O)c(O)c1 (stereo not drawn)	3.3	10901	1	·
46	Cc1nn(-c2ccccc2)c(N)c1Sc1ccc([N+](=O)[O-])cc1	0.9	5720	-3	-14
47	O=c1oc2ccccc2nc1/C=C(O)/C=C\c1ccccc1	·	3021	9	-16
48	C=C1CN(Cc2ccccc2)S(=O)(=O)c2ccccc21	4.3	4012	2	-8

no.	Sa ugtP lethal	Mtb hypoxia rep	Mtb hypoxia rep growth
37	16	-8	-2
38	2	·	·
39	5	3	3
40	-7	1	-5
41	7	14	9
42	·	·	·
43	-9	11	-2
44	11	1	-5
45	1	7	-5
46	4	13	7
47	·	·	·
48	-6	18	11

Looked up above.
Sa ugtP lethal result of COc1ccc(-n2cc(CNCCCN3CCCC3=O)c(-c3ccccc3Cl)n2)cc1 reads 0
BJeLR lethal result of O=c1oc2ccccc2nc1/C=C(O)/C=C\c1ccccc1 reads 9
Mtb hypoxia rep growth result of C=C1CN(Cc2ccccc2)S(=O)(=O)c2ccccc21 reads 11
Bead autofluor result of Cc1cccc(NC(=O)c2cnc3n(c2=O)CCS3)c1 reads 20823*
Mtb hypoxia rep result of O=C(NN=Cc1ccc([N+](=O)[O-])o1)c1cn(-c2ccccc2)nc1-c1ccc(Cl)cc1 reads -11

(list continues)
no.	SMILES	RN4220 kill	Bead autofluor	BJeLR lethal	PrP 5UTR inh
49	CC(=O)C(Cc1ccccc1)NC(=O)COc1ccc2c(c1)OCO2 (stereo not drawn)	8.0	3756	·	-7
50	O=C(NC1(C(F)(F)F)NC(=O)N(Cc2ccccc2)C1=O)c1cccnc1 (stereo not drawn)	2.9	2897	7	-1
51	COc1ccc(N2C(=O)CC(Nc3ccc(F)cc3)C2=O)c([N+](=O)[O-])c1 (stereo not drawn)	4.1	3086	7	-18
52	COc1ccc(CNC(=O)CSc2ncn[nH]2)cc1OC	-1.9	4361	0	-7
53	O=C(O)C1CCN(C(=O)c2ccc(Cl)cc2)CC1	0.8	2298	-4	-10
54	COc1ccc(-c2nc(C#N)c(N3CC(C)OC(C)C3)o2)cc1OC (stereo not drawn)	-0.2	?	3	18
55	Cc1ccc(-c2nc(=S)c3c(n2CC2CCCO2)CC(C)(C)OC3)cc1 (stereo not drawn)	-1.7	9945	-2	-15
56	CCn1c(SCC(=O)Nc2ccccc2)nc2nc3c(cc2c1=O)COC(C)(C)C3	3.1	·	-1	·
57	COc1cccc(NC(=O)Cn2cnc3sc(C)c(S(=O)(=O)N4CCN(C)CC4)c3c2=O)c1	-1.9	9196	2	-14
58	[O-]/[N+](=C/c1cccnc1)c1ccc(Br)cc1	0.6	2299	4	-33
59	CCOc1ccc2c(c1)/C(=C(\C(Cl)=C(Cl)Cl)[N+](=O)[O-])N2	2.6	2560	8	-19
60	O=C(CCCOc1ccc(Cl)cc1Cl)N/N=C/c1ccccc1O	·	2715	8	-22

no.	Sa ugtP lethal	Mtb hypoxia rep	Mtb hypoxia rep growth
49	-1	13	10
50	-2	-3	-1
51	-1	12	5
52	-2	-7	-3
53	0	·	·
54	-5	-21	-8
55	0	4	9
56	3	0	3
57	-7	-21	-2
58	2	·	·
59	5	11	8
60	·	·	·

Remaining list, next part
no.	SMILES	RN4220 kill	Bead autofluor	BJeLR lethal	PrP 5UTR inh
61	COc1ccc(C2(C(=O)NCCCN3CCOCC3)CCOCC2)cc1	4.5	9846	6	-14
62	CC1CSc2nnc(CCc3ccccc3)n21 (stereo not drawn)	3.0	6005	0	-22
63	CS(=O)(=O)N(CC(=O)Nc1ccccc1)c1cccc(Cl)c1Cl	2.9	3332	4	-6
64	Cc1ccc(Cl)cc1N1CCN(C(=O)C2CCC(=O)N2C(C)C)CC1 (stereo not drawn)	-0.5	5512	2	-59
65	O=C(NC1CC1)c1cc(F)c(F)cc1Cl	-6.9	11474	2	-6
66	Cc1ccc(OCCn2c(C)nc3ccccc32)cc1	1.2	3869	0	9
67	COc1ccccc1N1CCN(C(=O)CSc2nc3ccccc3c(=O)n2CC2CCCO2)CC1 (stereo not drawn)	-1.4	5628	2	0
68	COC(=O)C1=CO[C@@H](C)[C@H]2CN3CC[C@]4(C(=O)Nc5ccccc54)[C@@H]3C[C@H]12	4.8	4513	-2	-10

no.	Sa ugtP lethal	Mtb hypoxia rep	Mtb hypoxia rep growth
61	0	-1	10
62	-6	·	·
63	2	2	-5
64	-5	-2	0
65	-2	3	-5
66	0	-2	7
67	3	3	10
68	-3	·	·
